Screens from PubChem.
RGS16-Gao HTS: RGS16-Galphao interaction regulator (human); O15492+P09471; bead-based flow cytometry RGS16-Galphao binding, fluorescence; actives lie on both sides; binding response (% of control), % at 10 µM; 220,000 compounds, 0.38% hits; AID 1441;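 active = below 25% or above 175%, edge rows of some plates excepted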;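 note: Galphao activated by GDP with aluminum fluoride before binding; 100% = wells without compound and 0% = beads without RGS; some results beyond the cut were filed as inactive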
Target sequence (O15492 whole entry, looked up): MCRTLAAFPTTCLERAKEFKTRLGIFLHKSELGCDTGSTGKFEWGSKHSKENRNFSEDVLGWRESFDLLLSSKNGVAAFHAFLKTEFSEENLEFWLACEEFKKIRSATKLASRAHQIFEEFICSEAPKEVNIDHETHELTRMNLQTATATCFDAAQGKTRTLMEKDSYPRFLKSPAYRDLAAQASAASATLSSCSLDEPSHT
Target sequence (P09471 whole entry, looked up): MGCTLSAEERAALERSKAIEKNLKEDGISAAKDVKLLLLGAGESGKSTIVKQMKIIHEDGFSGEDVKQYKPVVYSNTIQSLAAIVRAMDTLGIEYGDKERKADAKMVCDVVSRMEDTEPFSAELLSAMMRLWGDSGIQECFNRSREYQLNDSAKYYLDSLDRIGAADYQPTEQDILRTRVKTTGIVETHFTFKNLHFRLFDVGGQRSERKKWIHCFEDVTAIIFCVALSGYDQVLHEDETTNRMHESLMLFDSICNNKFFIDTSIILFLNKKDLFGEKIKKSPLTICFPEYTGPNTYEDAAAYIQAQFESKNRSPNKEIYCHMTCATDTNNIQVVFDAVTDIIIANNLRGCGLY
INS promoter inh: TRM-6 insulin promoter activity inhibition. TRM-6 cells (human fetal islet line), insulin promoter-eGFP reporter, imaging; reporter expression induced with tamoxifen. inhibition, % at 2 µM. 130,000 compounds, 0.9% hits;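 active = inhibition above the mean plus 3 SD, with well images judged a real hit on visual review, cut at about 60% in these data, passing the limit was not always enough; inconclusive = inhibition over the cutoff but images rejected on review; inactive = inhibition not above the cutoff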
PKD1 inh: inhibitors of human PKD1 kinase | 200,000 compounds, 0.056% hits | inhibition, %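 (about 10 µM by stock and volumes)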 | Q15139 | PKD1 kinase fluorescence polarization assay;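 active = inhibition of 50% or more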;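 note: controls were vehicle for no effect and a reference inhibitor for full effect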
HSV augment: HSV replication enhancement | HSV replication augmentation in cells, fold increase | maximum fold increase | 220,000 compounds, 0.005% hits | AID 1956;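 active = peak rise of 1.5-fold or more in the series; inconclusive = self-fluorescent or not available for retest; tested in PC3 cells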;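 note: first round at 10 µM; read as green reporter fluorescence; hits show the peak of a series up to 25 µM; 1 = signal of infected wells without compound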
GALR2 agonist: GALR2 (human) receptor agonism. activation, %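 (tested at 5 µM)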. O43603. 140,000 compounds, 0.48% hits. GALR2-expressing cells, agonist activation read-out;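 active = above mean plus 3 SD of all compounds, about 5% in these data, not always enough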;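 note: 0% = vehicle buffer wells and 100% = reference agonist at full effect; tested in CHO reporter cells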
Target sequence (O43603 whole entry, looked up): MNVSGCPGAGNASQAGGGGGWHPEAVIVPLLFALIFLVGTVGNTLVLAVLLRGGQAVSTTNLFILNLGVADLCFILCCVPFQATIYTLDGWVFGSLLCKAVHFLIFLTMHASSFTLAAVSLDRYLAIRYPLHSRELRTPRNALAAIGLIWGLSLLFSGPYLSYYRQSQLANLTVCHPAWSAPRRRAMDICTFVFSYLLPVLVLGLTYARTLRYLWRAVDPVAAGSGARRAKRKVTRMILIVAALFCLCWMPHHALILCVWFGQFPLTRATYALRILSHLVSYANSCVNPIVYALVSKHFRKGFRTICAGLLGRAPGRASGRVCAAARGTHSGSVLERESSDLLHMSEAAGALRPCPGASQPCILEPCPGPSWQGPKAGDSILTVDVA
INS promoter inh cell count: recorded beside INS promoter inh, whose call it bears; normalized cell count, %; measured here: cell count, toxicity; reference of the scale not given here;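 cells exposed to compound for 48 h; stained nuclei by imaging scaled within each plate; lower means fewer cells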
HSV augment primary fold: second read-out of HSV augment, no call of its own (marks repeat the call); fold increase; compound at 10 µM; measured here: primary screen fold increase 10 uM; tested in PC3 cells;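 GFP signal in the first replicate; 1 = infected wells without compound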
Active calls of the source: *; i = inactive; ? = inconclusive; . = no result given.

Start of the listing, in advance:
SMILES | RGS16-Gao HTS | INS promoter inh | INS promoter inh cell count | PKD1 inh | HSV augment | HSV augment primary fold | GALR2 agonist
COC(=O)c1c(NC(=O)C2(C)Cc3ccccc3C(=O)O2)sc2c1CCCC2 (stereo unspecified) | 100 | 45 | 103 | 4 | i | 0.99 | -1.2
Cc1noc(C)c1COc1cccc(C(=O)OCCOc2ccc(F)cc2)c1 | 88 | 3 | 100 | -13 | i | 1 | -0.8
O=C(Nc1ccc(Cl)cn1)c1ccc(Br)c(S(=O)(=O)N2CCCCC2)c1 | 93 | . | . | 2 | i | 1 | .
COc1cc2c(C(=O)NCCCN3CC(C)CC(C)C3)cn(CC(C)C)c(=O)c2cc1OC (stereo unspecified) | 96 | . | . | 0 | i | 0.93 | -2.5
CCc1nnc(NC(=O)c2cnccn2)s1 | 68 | -62 | 112 | 0 | i | 1 | -2.3

Main list, previewed entries included:
SMILES | RGS16-Gao HTS | INS promoter inh | INS promoter inh cell count | PKD1 inh | HSV augment | HSV augment primary fold | GALR2 agonist
COC(=O)c1c(NC(=O)C2(C)Cc3ccccc3C(=O)O2)sc2c1CCCC2 (stereo unspecified) | 100 | 45 | 103 | 4 | i | 0.99 | -1.2
Cc1noc(C)c1COc1cccc(C(=O)OCCOc2ccc(F)cc2)c1 | 88 | 3 | 100 | -13 | i | 1 | -0.8
O=C(Nc1ccc(Cl)cn1)c1ccc(Br)c(S(=O)(=O)N2CCCCC2)c1 | 93 | . | . | 2 | i | 1 | .
COc1cc2c(C(=O)NCCCN3CC(C)CC(C)C3)cn(CC(C)C)c(=O)c2cc1OC (stereo unspecified) | 96 | . | . | 0 | i | 0.93 | -2.5
CCc1nnc(NC(=O)c2cnccn2)s1 | 68 | -62 | 112 | 0 | i | 1 | -2.3
CCN(CC)CCNC(=O)Cn1nc(-c2ccccc2)c2ccccc2c1=O | 110 | 29 | 72 | -6 | i | 1 | -2.8
CCn1c(C)nc2c(=O)oc3ccccc3c21 | 107 | . | . | -11 | i | 0.89 | -0.5
CC(C)c1ccc(OCC(=O)N(Cc2ccccc2)c2ccccn2)cc1 | 113 | 21 | 119 | -16 | i | 1 | -1.0
O=C(CNS(=O)(=O)c1ccc(F)cc1)Nc1ccc(C(F)(F)F)cc1 | 89 | -22 | 135 | -10 | i | 0.92 | -0.7
Cc1nc2c(C#N)c[nH]n2c(=O)c1CCO | 98 | . | . | . | i | 1.1 | .
Cn1c(=O)c2c(nc(CN3CCC(Cc4ccccc4)CC3)n2CCN2CCOCC2)n(C)c1=O | 97 | . | . | 1 | i | 0.92 | -0.8
Cc1c(C(=O)NCc2cccnc2)oc2ccccc12 | 103 | -25 | 107 | 1 | i | 0.91 | -1.8
CC(=O)N1CCN(c2ccc(NCc3cccs3)cc2)CC1 | 30 | 56 | 106 | 5 | ? | . | -1.4
CC1CCC(NCc2ccco2)CC1 (stereo unspecified) | 101 | 14 | 43 | -3 | i | 1 | -2.8
CCN(CC)S(=O)(=O)c1cccc(N2CC(O)=C(c3ccccc3)C2=N)c1 | 86 | . | . | . | i | 1.1 | .
COc1cccc(C2N(c3cccc(Cl)c3)C(=O)C3CCCN32)c1 (stereo unspecified) | 74 | . | . | -6 | i | 1.1 | -0.6
O=C(O)CCCCCNS(=O)(=O)c1ccc(Cl)cc1 | 100 | -64 | 66 | -5 | i | 1.1 | 0.4
COc1ccc(NC(=O)c2nc(C)c(C3(C)CC(c4cccnc4)=NO3)s2)cc1 (stereo unspecified) | 84 | . | . | . | i | 0.53 | .
CC(=O)c1sc(NC(=O)c2cccnc2Cl)nc1C | 96 | . | . | 1 | i | 0.98 | .
Cc1ccc2oc(=O)c3cnn(CC(=O)N4CCN(c5ccccc5)CC4)c3c2c1 | 101 | . | . | -1 | i | 0.99 | -0.3
Cc1cc(=O)oc(C)c1C(=O)NC1CCCCCCC1 | 107 | -94 | 70 | 6 | i | 0.87 | .
COc1ccc(OC)c(NC(=O)Nc2nnc(N3CCCCC3C)s2)c1 (stereo unspecified) | 107 | . | . | . | i | 0.91 | .
CCCC(=O)c1cc(F)c(N2CCOCC2)cc1C | 104 | . | . | -1 | i | 0.92 | -1.4
Cc1ccc(CNc2nc(N)c([N+](=O)[O-])c(Nc3ccc(F)cc3)n2)cc1 | 112 | -20 | 165 | -3 | i | 0.82 | -0.2
COc1ccc(CCNC(=O)COC(=O)/C=C/c2ccc(OC)c(OC)c2)cc1 | 105 | . | . | 0 | i | 1 | -0.5
SMILES | RGS16-Gao HTS | INS promoter inh | INS promoter inh cell count | PKD1 inh | HSV augment | HSV augment primary fold | GALR2 agonist
CCN1CCC(C(N)=O)CC1 | 161 | -12 | 79 | -2 | i | 0.9 | -1.4
Cc1ccc(NC(=O)C2CCN(c3nc(C)cc(C)n3)CC2)cc1 | 110 | . | . | -5 | i | 0.99 | .
Cc1cc(C)c2c(n1)sc1c(=O)n(-c3ccccc3)c(=O)[nH]c12 | 110 | 0 | 73 | -9 | i | 1 | -2.3
CC1=C(C(N)=O)C(c2ccco2)C(C(N)=O)=C(C)N1 | 99 | 23 | 89 | -6 | i | 1.1 | -2.4
O=C(NC1CCN(C(=O)C2CCCCC2)CC1)c1ccccc1 | 100 | . | . | . | i | 0.98 | .
Cc1ccc(-n2c(C)c([N+](=O)[O-])c3ccc(O)cc32)cc1 | 98 | . | . | . | i | 1.3 | .
Oc1ccccc1N=Cc1c(O)ccc2oc3c(c12)CCCC3 | 97 | . | . | . | i | 1.4 | .
COC(=O)C1=C(C(=O)OC)[C@@H]2N(C)c3ccccc3[C@@]23C[C@@H](C(=O)OC)N(C(=O)CC(C)C)C3=N1 | 95 | . | . | . | i | 0.83 | .
N#Cc1nc(COc2ccc(Cl)cc2)oc1NCc1ccc2c(c1)OCO2 | 61 | -19 | 96 | -6 | i | 0.92 | 0.0
Cc1ccc(CCC2C3=C(CCCC3=O)OC3=C2C(=O)CCC3)cc1 | 105 | 32 | 148 | -11 | i | 0.99 | 0.6
COC(=O)c1c(C)nc(C)c(C(=O)OC)c1-c1cccs1 | 93 | 45 | 95 | -2 | i | 1.1 | .
O=c1c(C=NCCCO)c(-c2ccccc2)[nH]n1-c1nc2ccccc2s1 | 106 | . | . | 0 | i | 1 | .
CC(=O)NC(Cc1c[nH]c2ccccc12)C(=O)OCC(=O)Nc1cc(C)on1 (stereo unspecified) | 29 | 30 | 52 | -11 | i | 0.95 | -1.2
CCn1c(COc2cccc3ccccc23)nnc1SCC(N)=O | 179 | 14 | 116 | -8 | i | 0.64 | 0.5
Clc1ccc(Cl)c(-c2ccc(/C=N/c3ncn[nH]3)o2)c1 | 102 | . | . | -14 | i | 0.92 | -0.1
CC(C)CN(C(=O)COC(=O)Cn1cnc2ccccc2c1=O)C1CCS(=O)(=O)C1 (stereo unspecified) | 131 | 14 | 140 | -18 | i | 0.9 | -2.6
CCn1c2ccccc2c2cc(NC(=O)CNC)ccc21 | 108 | . | . | . | i | 0.88 | .
CCc1ccc(OCCCC(=O)Nc2ccc(N3CCOCC3)cc2)cc1 | 101 | . | . | 3 | i | 0.85 | .
CC(C)N1CCC(N2CCN(C/C=C/c3ccc(F)cc3)CC2CCO)CC1 (stereo unspecified) | 102 | . | . | -1 | i | 0.97 | .
Cc1cc(N2C(=O)C3CC=CCC3C2=O)no1 (stereo unspecified) | 98 | 10 | 88 | -1 | i | 0.77 | -3.3
CC1=C(C)C(=O)C(CCCCC#CCCCC#CCO)=C(C)C1=O | 103 | 33 | 120 | -11 | i | 0.91 | 0.2
O=C(NCc1cccnc1)c1cccc2c1C(=O)N(C1CCCCC1)C2 | 99 | . | . | -6 | . | . | -0.5
Cc1cc2cc(CN(CCCO)S(=O)(=O)c3cccc4nsnc34)c(=O)[nH]c2cc1C | 95 | . | . | 7 | i | 0.89 | -0.2
CN(CC(=O)NCc1ccccn1)S(=O)(=O)c1ccc(Cl)cc1 | 98 | 15 | 87 | -1 | i | 1 | -2.0
O=C1COc2ccc(C(=O)COC(=O)c3sc4ccccc4c3Cl)cc2N1 | 102 | -13 | 80 | -12 | i | 1 | 0.9

In the list so far, 2 have a cyano group.
SMILES | RGS16-Gao HTS | INS promoter inh | INS promoter inh cell count | PKD1 inh | HSV augment | HSV augment primary fold | GALR2 agonist
Cc1nc2c(C#N)c[nH]n2c(=O)c1CCO | 98 | . | . | . | i | 1.1 | .
N#Cc1nc(COc2ccc(Cl)cc2)oc1NCc1ccc2c(c1)OCO2 | 61 | -19 | 96 | -6 | i | 0.92 | 0.0

(next part)
SMILES | RGS16-Gao HTS | INS promoter inh | INS promoter inh cell count | PKD1 inh | HSV augment | HSV augment primary fold | GALR2 agonist
COc1ccc(/C=N\NC(=O)c2cccc([N+](=O)[O-])c2)cc1Cn1cc([N+](=O)[O-])cn1 | 114 | . | . | -1 | i | 1 | .
COC(=O)c1ccc(CNC(=O)COC(=O)c2ccc(N(C)C)cc2)cc1 | 108 | 60 | 121 | 0 | i | 0.88 | .
Cc1ccc2oc(/N=C(\N)NC(=O)C(C)(C)C)nc2c1 | 107 | . | . | . | i | 1.2 | .
COCCNC(=O)c1cc2cc(Cl)cc(Cl)c2oc1=O | 102 | . | . | 1 | i | 1.1 | .
O=S(=O)(NC1CCN(Cc2ccccc2)CC1)c1cccc(S(=O)(=O)N2CCOCC2)c1 | 100 | -208 | 100 | 2 | . | . | -1.3
COc1ccccc1-n1c(SCC(=O)NC(C)(C)C)nc(O)cc1=O | 109 | . | . | 2 | i | 0.75 | -1.9
O=C(NCCNc1ccc(Cl)cc1[N+](=O)[O-])c1cccnc1 | 101 | . | . | -2 | i | 0.95 | .
O=C(CN(Cc1ccco1)C(=O)CNS(=O)(=O)c1ccccc1)NCc1ccccc1 | 96 | -16 | 51 | -18 | i | 1.1 | -0.7
COc1nc(N(c2ccccc2)c2ccccc2)nc(-n2ccnc2)n1 | 104 | -12 | 196 | 3 | i | 1.1 | 3.8
C=CCn1c(SCC2=C(C(=O)OCC)C(C)NC(=O)N2)nnc1C1CCCCC1 (stereo unspecified) | 97 | 17 | 87 | -2 | i | 1.1 | -0.9
COc1ccccc1N1CCN(S(=O)(=O)c2cc(C)sc2C)CC1 | 104 | . | . | -11 | i | 0.66 | -2.7
CCOC(=O)c1nnc2cc(-c3ccccc3)nn2c1C | 82 | -55 | 103 | -10 | i | 0.94 | -2.9
CCOC(=O)N1CCN(S(=O)(=O)c2cc(Br)cc3c2N(C(C)=O)C(C)C3)CC1 (stereo unspecified) | 104 | 4 | 123 | -8 | i | 0.89 | 0.0
FC(F)(F)c1ccc(-c2n[nH]c(=S)o2)nc1 | 98 | . | . | . | i | 0.91 | .
COc1ccc(-c2cc3nc(-c4ccccc4)cc(N4CCC5(CC4)OCCO5)n3n2)cc1 | 98 | . | . | -7 | i | 0.86 | 0.7
COC(=O)c1sc(S(=O)(=O)NCC(=O)O)c(C(=O)OC)c1C | 98 | 21 | 133 | 1 | i | 1 | .
Cc1cccc(C(=O)Nc2sc3c(c2C#N)CCCCC3)c1 | 105 | -344 | 95 | -5 | i | 0.78 | 0.5
CCCCCOC(=O)C1=C(C)NC(=O)NC1c1ccccc1OCC (stereo unspecified) | 107 | . | . | -7 | i | 1.1 | -1.8
CCN(CC)S(=O)(=O)c1cccc(C(=O)N[C@H](C(=O)NNC(=O)c2ccccc2)C(C)C)c1 | 101 | . | . | . | i | 0.94 | .
CC(C)NC(=O)NC(=O)COC(=O)Cc1ccsc1 | 119 | 11 | 175 | 4 | i | 0.98 | 0.9
CC1CCCC/C1=N\NC(=S)Nc1cccnc1 (stereo unspecified) | 103 | -19 | 103 | -9 | i | 1 | .
CCOC(=O)C1CCN(C(=O)CSc2ccccc2)CC1 | 105 | -8 | 186 | -3 | i | 0.91 | 0.2
Cc1ccccc1NC(=S)N(CCN(C)C)C(C)c1ccccn1 (stereo unspecified) | 100 | -39 | 87 | 0 | i | 0.84 | -0.3
CCc1c(C(C)S(=O)(=O)c2ccccc2)[nH]c(=O)n1CC (stereo unspecified) | 98 | . | . | 4 | i | 0.91 | .
Cc1ccc(-c2cn3cccc(C)c3n2)cc1 | 99 | 73* | 126* | -3 | i | 1.2 | .
Cc1cccc(N2C(=O)CC(N3CCN(Cc4ccc(Cl)cc4)CC3)C2=O)c1 (stereo unspecified) | 104 | 4 | 195 | -2 | i | 1 | -1.1
COc1ccc(CC(=S)N2CCOCC2)cc1OC | 107 | 50 | 90 | 4 | i | 1 | -2.6
O=P(c1ccc2c(c1)OCCO2)(N1CCOCC1)N1CCOCC1 | 94 | . | . | -8 | i | 1 | -1.9
COC(=O)c1c(C)nn(-c2ccccc2)c1-n1cccc1 | 60 | 15 | 70 | -7 | i | 1.1 | -0.8
CCOC(=O)c1cc(-c2ccccc2)sc1NC(=O)COC | 100 | . | . | -2 | i | 1 | .
